Source: PubChem
KAT2A inh: inhibitors of human GCN5L2 histone acetyltransferase. Q92830. GCN5L2 HAT assay, ThioGlo1 CoA-SH fluorescence. Potency, µM (titrated, usually from 58.9 µM), without a hit: at the highest dose activity change, negative = inhibition, most hits filed as inhibitors. 390,000 compounds, 0.21% hits. AID 504327; active = well fitted inhibition curve with a large enough effect; inconclusive = small, poorly fitted or top-dose-only effect, or another doubt; inactive = no such curve, though single readings can be large or run the other way
Target sequence (Q92830 whole entry, looked up): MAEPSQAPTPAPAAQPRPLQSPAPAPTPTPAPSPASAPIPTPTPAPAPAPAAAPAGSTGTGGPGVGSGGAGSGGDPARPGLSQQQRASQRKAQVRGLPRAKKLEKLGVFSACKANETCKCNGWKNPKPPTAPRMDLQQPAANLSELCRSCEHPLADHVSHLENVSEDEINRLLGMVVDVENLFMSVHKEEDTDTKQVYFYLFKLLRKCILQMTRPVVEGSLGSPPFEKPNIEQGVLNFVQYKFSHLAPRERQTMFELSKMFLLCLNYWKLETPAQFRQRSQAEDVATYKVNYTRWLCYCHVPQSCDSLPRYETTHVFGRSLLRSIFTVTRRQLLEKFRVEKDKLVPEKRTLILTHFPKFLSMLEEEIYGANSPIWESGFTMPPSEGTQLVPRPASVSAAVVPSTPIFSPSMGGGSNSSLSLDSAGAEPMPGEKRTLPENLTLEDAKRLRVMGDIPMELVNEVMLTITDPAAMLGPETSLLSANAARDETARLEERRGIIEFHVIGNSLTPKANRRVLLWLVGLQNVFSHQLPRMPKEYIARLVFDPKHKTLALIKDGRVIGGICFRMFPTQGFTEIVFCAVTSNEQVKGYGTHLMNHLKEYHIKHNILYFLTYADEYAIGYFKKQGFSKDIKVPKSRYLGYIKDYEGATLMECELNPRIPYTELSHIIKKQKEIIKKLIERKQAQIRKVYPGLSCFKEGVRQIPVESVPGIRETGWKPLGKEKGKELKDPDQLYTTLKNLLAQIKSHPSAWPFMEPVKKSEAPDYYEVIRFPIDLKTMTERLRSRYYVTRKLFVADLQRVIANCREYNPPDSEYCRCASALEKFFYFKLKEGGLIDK
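Compounds, pin-transferred from DMSO stocks, meet 20nM GCN5L2 for 15 min before the reaction begins with H3(1-25) peptide (75uM) and acetyl-CoA (70uM). Thiol-reactive ThioGlo1 reports CoA release over 20 min at room temperature.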
Starred values were filed as active, the others as inactive; ? = inconclusive; [ ] = remark or other dose. % is scaled to controls: 0 for no effect and ±100 for the full control effect; potency is read from the fitted curve at half-maximal effect.

SMILES	KAT2A inh
CCN1/C(=C(\O)c2ccccc2)C(=O)c2ccccc2S1(=O)=O	0%
COc1ccc(C2CC(c3cccs3)=NN2C(=O)CSc2nc3ccccc3s2)cc1 (configuration not stated)	-7%
COc1ccc(C(=O)COC(=O)c2ccccc2C(=O)N(C)c2ccccc2)c(OC)c1	-8%
CC(=O)Nc1ccc(S(=O)(=O)NCc2cccn2Cc2cccc(C)c2)cc1	9%
CCC(=O)N1c2ccccc2CC1C(=O)N1CCN(c2ccccc2F)CC1 (configuration not stated)	-9%
O=C1CC(c2ccccc2)Cc2nc3ncnn3cc21 (configuration not stated)	1%
CS(=O)(=O)N(CCC#N)Cc1ccco1	-2%
Cc1ccc(S(=O)(=O)NCl)cc1	?
CCN(CC(=O)Nc1ccc(OC)cc1)C(=O)c1ccccc1Sc1ccccc1C#N	-9%
CCOc1ccccc1NC(=O)Cn1nnc(C(=O)NCCc2ccc(OC)c(OC)c2)c1N	-10%
COc1ccccc1C/C(N)=N/OC(=O)COc1cccc2ccccc12	-2%
CC(=O)Nc1ccc2nc(SCC(=O)O)sc2c1	-9%
CC1(C)C2CCC1(CS(=O)(=O)N1CCN(c3ccccc3F)CC1)C(=O)C2 (configuration not stated)	-3%
COC(=O)c1ccc(CNC(=O)COC(=O)C2CC3C=CC2C3)cc1 (configuration not stated)	7%
COc1ccccc1C(=O)COC(=O)c1cccs1	3%
COc1cccc(OC)c1C(=O)NC(=O)Oc1c(F)cccc1F	-1%
Cc1cccc(C)c1OCc1cc(=O)n2c(-c3ccccc3)csc2n1	-12%
CCOC(=O)CNC(=O)c1sc(NC(=O)/C=C/c2ccccc2)nc1C	-17%
COC(=O)[C@]1(Cc2ccccc2)N[C@H](CN(C)C(=O)c2ccccc2)[C@@H]2C(=O)N(Cc3ccccc3)C(=O)[C@@H]21	-5%
OC(c1nnc(-c2ccccc2)o1)c1cccs1 (configuration not stated)	-18%
COc1cccc(C(c2sc3nc(C)nn3c2O)N2CCN(c3ccccc3F)CC2)c1 (configuration not stated)	-6%
COC(=O)c1c(NC(=O)CCCC(=O)O)sc(C)c1C	0%
CCC(C(=O)NC1CCCCC1)n1nc(C)c2c(C)n(-c3ccccc3)nc2c1=O (configuration not stated)	-4%
Cc1cccc(-c2ccc(C=Nc3c(C)n(C)n(-c4ccccc4)c3=O)o2)c1	-17%
CCCS(=O)(=O)N1CCN(C2CCC(C)CC2)CC1 (configuration not stated)	-3%
Oc1ccc(C[C@H]2CNCCN2CCc2cccc(F)c2)cc1	-4%
O=C(CN(Cc1ccccc1)S(=O)(=O)c1ccc(Br)cc1)N/N=C/c1ccccc1C(=O)O	-3%
CCCCCCCCCCOCCC(=O)O	12%
c1ccc(-c2nc(N3CCOCC3)c3ccccc3n2)nc1	-9%
Cn1cc(/C=N/NC(=O)COc2ccccc2[N+](=O)[O-])c2ccccc21	-4%
CCC(C(=O)NCCc1ccccc1)n1nc(C)n2c(cc3sccc32)c1=O (configuration not stated)	0%
C/C(=N\NC(=O)c1ccc(CSc2nncn2C)cc1)c1ccc(Cl)cc1	3%
O=C(CSc1nnc(-c2ccco2)o1)N1CCOCC1	-7%
Cc1ccc2c(c1)-c1c(cnn1CC(=O)N1CCCN(Cc3ccccc3F)C1)CO2	-5%
COC(=O)Cn1ncc(N(C)Cc2ccccc2)c(Cl)c1=O	-18%
NC(=O)Nc1ccc(C(=O)OCC(=O)Nc2ccc([N+](=O)[O-])cc2C(F)(F)F)cc1	1%
O=C(NCc1ccc(F)cc1)c1ccc2nc(N3CCCCC3)sc2c1	-3%
CCOc1ccc(Nc2ncnc3c2nc2n3CCCC2)cc1	-10%
CCCOc1ccc(/C=N/NC(=O)CSCc2ccc([N+](=O)[O-])cc2)cc1OCC	-11%
CN(Cc1cccs1)C(=O)CSc1nnnn1C	-5%
CN/C=C1\C(=O)C(C)(C)Oc2ccc3ccc(=O)oc3c21	-12%
O=C(Cc1c[nH]c2ccccc12)NCc1ccccc1F	-5%
COc1ccc(-c2noc(N3CCC(C(=O)N4CCN(c5cccc(C)c5C)CC4)CC3)n2)cc1	-8%
C=CCN(CC=C)C(=O)Nc1cc(OC)ccc1OC	-7%
Cc1nn(CC2CC2)c(=O)n1-c1ccccc1	-10%
O=C(CSc1nccc(=O)[nH]1)N1c2ccccc2CCc2ccccc21	-4%
COc1ccc(OCc2nnc3n2N=C(c2ccccc2)C(CC(=O)O)S3)cc1 (configuration not stated)	?
Cc1nc2c(=O)n(-c3cccc(C(F)(F)F)c3)nc(C)c2s1	-4%
Cc1cc(C)c2c(N)c(C(=O)c3cccc(Cl)c3)sc2n1	33%[activator]
CC(C)OC(=O)C(C)(C)Oc1ccc(C(=O)c2ccc(Cl)cc2)cc1	?

For reference, part of the list above.
SMILES	KAT2A inh
c1ccc(-c2nc(N3CCOCC3)c3ccccc3n2)nc1	-9%
Cn1cc(/C=N/NC(=O)COc2ccccc2[N+](=O)[O-])c2ccccc21	-4%
CCC(C(=O)NCCc1ccccc1)n1nc(C)n2c(cc3sccc32)c1=O (configuration not stated)	0%
C/C(=N\NC(=O)c1ccc(CSc2nncn2C)cc1)c1ccc(Cl)cc1	3%
O=C(CSc1nnc(-c2ccco2)o1)N1CCOCC1	-7%
Cc1ccc2c(c1)-c1c(cnn1CC(=O)N1CCCN(Cc3ccccc3F)C1)CO2	-5%
COC(=O)Cn1ncc(N(C)Cc2ccccc2)c(Cl)c1=O	-18%
NC(=O)Nc1ccc(C(=O)OCC(=O)Nc2ccc([N+](=O)[O-])cc2C(F)(F)F)cc1	1%
O=C(NCc1ccc(F)cc1)c1ccc2nc(N3CCCCC3)sc2c1	-3%
CCOc1ccc(Nc2ncnc3c2nc2n3CCCC2)cc1	-10%
CCCOc1ccc(/C=N/NC(=O)CSCc2ccc([N+](=O)[O-])cc2)cc1OCC	-11%
CN(Cc1cccs1)C(=O)CSc1nnnn1C	-5%
CN/C=C1\C(=O)C(C)(C)Oc2ccc3ccc(=O)oc3c21	-12%
O=C(Cc1c[nH]c2ccccc12)NCc1ccccc1F	-5%
COc1ccc(-c2noc(N3CCC(C(=O)N4CCN(c5cccc(C)c5C)CC4)CC3)n2)cc1	-8%
C=CCN(CC=C)C(=O)Nc1cc(OC)ccc1OC	-7%
Cc1nn(CC2CC2)c(=O)n1-c1ccccc1	-10%
O=C(CSc1nccc(=O)[nH]1)N1c2ccccc2CCc2ccccc21	-4%
COc1ccc(OCc2nnc3n2N=C(c2ccccc2)C(CC(=O)O)S3)cc1 (configuration not stated)	?

Returning to the listing with the two entries that preceded the break.
SMILES	KAT2A inh
Cc1cc(C)c2c(N)c(C(=O)c3cccc(Cl)c3)sc2n1	33%[activator]
CC(C)OC(=O)C(C)(C)Oc1ccc(C(=O)c2ccc(Cl)cc2)cc1	?
Cc1cc([N+](=O)[O-])nn1CCCC(=O)N1CCN(c2ccccc2)CC1	-1%
Cc1ccc(OC(=O)C2CSC3(C)CCC(=O)N23)c(Br)c1 (configuration not stated)	-8%
Cc1ccccc1NC(=O)c1oc2c(c1C)-c1nn(Cc3cccc(Cl)c3)cc1CC2	-11%
COc1cc(-c2c(C#N)c(N)nc(SCc3ccncc3)c2C#N)cc(OC)c1OC	-6%
COc1ccccc1C(=O)N1C(CC(=O)Nc2ccc(C)c(C)c2)C(=O)NC2CCCCC21 (configuration not stated)	-11%
O=C(C1CCCO1)N1CCN(c2ncccn2)CC1 (configuration not stated)	-2%
Cc1ccc(S(=O)(=O)N2CCN(C(=O)c3nn(C(C)C)c(=O)c4ccccc34)CC2)cc1C	-22%
CSc1c(CC(=O)Nc2ccc(F)cc2)n(Cc2ccccc2)c2ccccc12	48%[activator]
Cc1ccccc1OCc1nc(-c2ccc(Br)o2)no1	-4%
Cn1nccc1NS(=O)(=O)c1ccc(C(C)(C)C)cc1	-9%
CCOc1ccc(NC(=O)C2CCCN2C(=O)OCc2ccccc2)cc1 (configuration not stated)	-16%
NC(=O)C1CCN(S(=O)(=O)c2ccccc2[N+](=O)[O-])CC1	-8%
CCN(CC(=O)Nc1ccc(S(=O)(=O)N2CCCC2)cc1)CC(=O)Nc1ccccc1C(F)(F)F	-13%
CC(=O)OCc1cc(-c2nn(C)c(=O)c3ccccc23)ccc1C	10%
S=C(Nc1ccccn1)NC1CCCCC1	0%
COCc1cc(=O)n2[nH]c(SC)nc2n1	-3%
C/C=C/C(=O)N1CC2(CC(c3cccc(NC(=O)CC(c4ccccc4)c4ccccc4)c3)=NO2)C[C@H]1C(N)=O (some centres not stated)	29%
O=c1c2cnn(-c3ccccc3)c2ncn1Cc1cccc(Cl)c1	0%
O=C(CN1C(=O)NC(Cc2ccccc2)C1=O)Nc1ccc(F)c(Cl)c1 (configuration not stated)	1%
COc1ccc(N2CCN(C(=O)CCS(=O)(=O)c3ccc(OC)cc3)CC2)cc1	-14%
Cc1cc(C)n2nc(NCc3cccc(Br)c3)nc2n1	?
O=C/C=C/c1ccc(O)cc1	-6%
CCOC(=O)c1c(N)sc(C(=O)N2CCCCC2)c1C	1%
CCOc1ccccc1/C=C/c1onc(C)c1S(=O)(=O)N1CCC(C(=O)N2CCCCCC2)CC1	-8%
COc1ccc(OCC(=O)Nc2cc(S(=O)(=O)N3CCCC3)ccc2Cl)cc1	1%
CC(=O)Nc1nc(C(=O)Nc2c(C)n[nH]c2C)cs1	?
CC(C)CC(=O)NNC(=O)C(C)C	-3%
CCN(CC)S(=O)(=O)c1cccc(NC(=O)Nc2cccc(C(F)(F)F)c2)c1	-16%
Cc1ccc(S(=O)(=O)NC(C)C(=O)Nc2ccccc2C(=O)N2CCCC2)cc1 (configuration not stated)	3%
COc1ccc(CCNc2nc(SCc3ccc(Cl)cc3)nc3ccccc23)cc1OC	0%
CC(C)N1CC(C(=O)Nc2ccc(S(=O)(=O)N3CCCCC3)cc2)CC1=O (configuration not stated)	-5%
CCOC(=O)c1ccc(S(=O)(=O)N2CCN(C(=O)c3ccccn3)CC2)cc1	-1%
Cc1csc(NC(=O)CSc2nnc(-c3cc(C)on3)o2)n1	-6%
Cc1ccc(C(=O)N[C@H](C(=O)OCC(=O)NC2CCS(=O)(=O)C2)C(C)C)cc1 (some centres not stated)	2%
O=C(CCCN1C(=O)CCC1=O)Nc1ccc(Cl)c(C(F)(F)F)c1	-2%
COc1cccc(CNC(=O)c2ccc(NC(=O)CC3SC(N4CCCCC4)=NC3=O)cc2)c1 (configuration not stated)	-1%
O=C(N/N=C\c1cc2c(cc1[N+](=O)[O-])OCO2)c1cccs1	-2%
CCNC(=O)C1CCN(c2nnc(C)c3c(C)n(-c4ccc(OC)cc4)nc23)CC1	-5%
CCOc1ccc(S(=O)(=O)N(C)CC(=O)N2CCCC2)cc1	-5%
COc1ccc(N2CCN(CC(=O)c3c[nH]c4ccccc34)CC2)cc1	-1%
COc1cc(/C=C/C(=O)OCC(=O)NCCC2=CCCCC2)cc(OC)c1OC	-2%
COc1ccc2nccc(/C=C/c3ccnc4ccc(OC)cc34)c2c1	-17%
O=C(NCc1ccco1)/C(=C\C=C\c1ccccc1)NC(=O)c1ccco1	-1%
Cc1ccc(O)c(Sc2cc(C)ccc2O)c1	-22%
CC(C)(C)OC(=O)NCCOC(=O)c1[nH]cnc1C(=O)NCc1ccccc1	-1%
COc1ccc(Cl)cc1NC(=O)CCn1nc(C)cc1C	-8%
CCC(Oc1ccccc1)C(=O)Nc1ccccc1OCc1cc(=O)n2ccccc2n1 (configuration not stated)	-11%
c1ccc(Cc2c[nH]c3ccccc23)cc1	-2%
CCOC(=O)N1CC=C2C(C#N)=C(N)C(C#N)(C#N)[C@H](c3cccs3)[C@H]2C1	-4%
Cc1cccnc1NC(=S)NC(=O)c1cncc(Br)c1	-10%
Remaining list, next part.
SMILES	KAT2A inh
O=C(NC(=S)NCc1ccccc1Cl)c1cccs1	-8%
CC(NC(=O)Cn1cnnn1)c1cccc(C(F)(F)F)c1 (configuration not stated)	-6%
O=C(OCCN1C(=O)c2ccccc2C1=O)c1cccc(OC(F)F)c1	-8%
COc1cc(C=NCC2OCCc3ccccc32)cc(OC)c1 (configuration not stated)	0%
COc1cccc(CN2CCN(Cc3nc(C(C)C)cs3)CC2CCO)c1 (configuration not stated)	-5%
CCN(CCCCCCN)c1ccc2c(=O)[nH][nH]c(=O)c2c1	-16%
CC1CN(C(=O)CCC(=O)Nc2cc(F)ccc2F)c2ccccc2S1 (configuration not stated)	-8%
Cc1ccc(-n2ncc(C(=O)NCCCN3CCN(c4cccc(Cl)c4)CC3)c2-n2cccc2)cc1	1%
COc1ccccc1C(CNC(=O)c1cccc(NS(=O)(=O)c2ccc(C)c(F)c2)c1)N1CCCC1 (configuration not stated)	-1%
CC1CCCN(C(=O)c2ccc3c(c2)C(=O)N(CCC2=CCCCC2)C3=O)C1 (configuration not stated)	-5%
O=C(Nc1ccncc1)Nc1ccccn1	2%
Cc1cc(C)nc(SCCN2CCOCC2)n1	-2%
O=C(NCCS(=O)(=O)N1CCN(c2cccc(Cl)c2)CC1)C(c1ccccc1)c1ccccc1	-3%
Cc1nn2c(N)c(-c3ccccc3)cnc2c1-c1ccccc1	3%
CCOc1nc(NC(=O)NS(=O)(=O)c2cccc(Cl)c2)nc(-c2ccccc2)n1	-7%
CC1Cc2ccccc2N1C(=O)c1ccc2snnc2c1 (configuration not stated)	-4%
Cc1ccc(-c2nnc(SCC(=O)Nc3ccc(N4CCOCC4)cc3)o2)cc1	-2%
CCOC(=O)c1ccc(N2Cc3ccccc3C2=N)cc1	-1%
S=c1[nH]nc(COc2ccccc2)n1C1CCCCC1	1%
O=C(NCc1ccccn1)C1CCCCC1	-6%
O=C(CN1CCN(C(=O)C2CC2)CC1)Nc1ccc(Cl)cc1F	-5%
CCn1cc(C(=O)N2CCN(c3ccccn3)CC2)c(=O)c2cc(S(=O)(=O)N(C)C3CCCCC3)ccc21	-4%
CCOC(=O)c1ccc(N2CCN(c3cccc(Cl)c3)CC2)c(NC(=O)Nc2ccc(Cl)cc2)c1	-8%
Fc1ccc(N2N=C(c3cccs3)CC2c2ccco2)c(F)c1 (configuration not stated)	-3%
N#Cc1ccsc1NC(=O)c1cccc(-n2cnnn2)c1	-3%

A portion of the library, and most or all hits are left out here.
